Assay outcomes: PubChem, several laboratories
UUG fidelity: modulators of start codon recognition fidelity in yeast; S. cerevisiae UUG-firefly luciferase reporter, luminescence/redox ratio; activity score, % at 18.7 µM; actives 0.13% (n = 350,000);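 active = replicate mean at a twofold rise or more, about +100% in these data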;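 note: firefly luciferase made from a UUG start codon reports start codon fidelity; reporter light over untreated wells divided by growth signal over untreated wells; some hits fall short of that in this replicate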
MT1-MMP act inh: inhibitors of human MT1-MMP activation. HT1080 RFP-PRO-GFP cells, GFP/RFP ratio fluorescence, overnight; percent of plate control window, DMSO zero. actives 0.061% (n = 360,000). GFP/RFP ratio change, % at 20 µM;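 active = GFP/RFP ratio change of at least 30% with cell ATP level not reduced by more than half and red fluorescence within 50% of control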; note: strong numbers were not always called active
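Assay system: HT1080 cells carrying an RFP-PRO-GFP reporter | Dosing: Single dose of 20 µM compound, 1% DMSO final | Incubation: Cells overnight before dosing, compound overnight, 37 °C, 5% CO2 | Evaluation: GFP/RFP fluorescence ratio | Control set: DMSO and RFP-L50D-GFP cell wells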
Rce1 inhib: inhibitors of yeast Ras-converting enzyme | Q03530 | yeast membranes, quenched prenylated peptide cleavage fluorescence | calls only | actives 0.27% (n = 290,000) | AID 2563;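 active = fall in fluorescence gain of 50% or more versus controls, with final raw signal at or below 3038400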;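 note: plate controls were neutral control wells for no effect and wells lacking membranes for full effect; tested at 10 µM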
Target sequence (Q03530 whole entry, looked up): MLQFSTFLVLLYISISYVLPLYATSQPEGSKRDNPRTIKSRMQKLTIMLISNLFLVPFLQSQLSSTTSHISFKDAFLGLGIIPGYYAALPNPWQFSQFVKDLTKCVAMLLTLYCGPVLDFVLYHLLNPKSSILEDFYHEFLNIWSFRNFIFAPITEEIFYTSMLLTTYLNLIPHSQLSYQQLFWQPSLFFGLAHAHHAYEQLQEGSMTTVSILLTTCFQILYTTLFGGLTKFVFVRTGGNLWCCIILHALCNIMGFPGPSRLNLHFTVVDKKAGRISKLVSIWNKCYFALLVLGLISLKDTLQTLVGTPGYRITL
eIF4H FP inh: inhibitors of RNA binding by human eIF4H. Q15056. eIF4H fluorescence polarization binding assay. inhibition, % at 35 µM. actives 0.94% (n = 290,000);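 active = 50% or more with normal probe brightness, or confirmed in later tests; about a fifth of its hits are not listed in these tables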;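 note: calls also rest on retests at 20 µM and on dose response follow-up; 0% = protein and probe with vehicle and 100% = probe without protein; strong numbers were not always called active; many hits fall short of the cut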
PABP FP inh: PABP-poly(A) binding inhibition | P11940 | PABP-poly(A) RNA binding, fluorescence polarization | inhibition, % at 35 µM | actives 1% (n = 290,000) | AID 2014;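 active = 50% or more with normal probe brightness, or confirmed in later tests; about a fifth of its hits are not listed in these tables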;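 note: calls also rest on retests at 20 µM and on dose response follow-up; controls were probe without protein and protein plus probe with vehicle; some compounds called inactive have numbers as strong as hits; many hits fall short of the cut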
CSC inhib: blocks cancer stem cells; cancer stem cell-like cells viability, luminescence; inhibition, % at 7.5 µM; actives 1.1% (n = 300,000);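 active = mean at 75% or more and at least half the replicates too; tested in HMLE shEcad cells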;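 note: 0% = median of negative and 100% = median of positive control wells; the first replicate is given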
Env fusion inh: blocks HIV Env-driven cell-cell fusion. inhibition, % at 12.3 µM. AID 651610. HeLa-JRFL Env/CEM21 cell fusion, luciferase. actives 1.1% (n = 360,000);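 active = mean replicate inhibition score of at least 50 and every replicate individually at or above 50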;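 note: 0% = plate neutral controls and 100% = maraviroc near 300 nM; one replicate is shown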
eIF4H FP inh retest: further read-out of eIF4H FP inh, marked with its call; inhibition, %; compound at 20 µM; confirmation average;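 mean of two retest wells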
PABP FP inh retest: second read-out of PABP FP inh, no call of its own (marks repeat the call); inhibition, %; compound at 20 µM; confirmation repeats;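 mean of two retest wells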
MT1-MMP act inh RFP: second read-out of MT1-MMP act inh, no call of its own (marks repeat the call); RFP signal change, %; measured here: RFP expression control read;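 0 = vehicle wells; hits needed this value within 50% of zero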
An asterisk follows results filed as active; i = inactive; . = not tested or not shown; + = active, no number; & = joins results of further samples; [ ] = dose if it differs, or a comment. An excerpt (hit frequency here may not be typical).

SMILES	UUG fidelity	MT1-MMP act inh	MT1-MMP act inh RFP	Rce1 inhib	eIF4H FP inh	PABP FP inh	CSC inhib	Env fusion inh	others
CCOc1ccccc1NC(=O)Cn1c(=O)n(-c2ccc(OC)cc2OC)c(=O)c2c(C)c(C(=O)N(CC)CC)sc21	.	5.3	0.3	i	-8.8	-2.3	7.7	0.2
O=C(CN(c1cccc(C(F)(F)F)c1)S(=O)(=O)c1ccc(Cl)c([N+](=O)[O-])c1)NCc1ccccc1	-19.6	2.7	4.5	i	-8.5	-8.1	85.3*	-27.6
CC(=O)OC1CC(C)(C)N(OC(=O)c2ccc(N)cc2)C(C)(C)C1	-14.0	0.1	-3.9	i	6.5	0.5	1.2	-74.5
O=Cc1cccn1-c1ncc(Br)cn1	-11.6	2.3	-0.8	i	2.9	16.3	-3.2	-1.9
CCn1cc(C(=O)N2CCCC2)c(=O)c2cc(S(=O)(=O)N(C)C)ccc21	-13.5	-1.7	6.1	i	-3.3	10.1	2.4	-8.5
CN[C@H]1C[C@H]2c3[nH]c4ccccc4c3CCN2C(=O)[C@H]1[C@H](C)O	-21.3	3.5	3.2	.	.	.	.	-74.0
O=C1CC(C(=O)Nc2ccc(Cl)c(Cl)c2)S/C(=N\N=C\c2ccco2)N1 (stereo not given)	.	6.2	1.5	i	-17.3	2.2	22.2	2.2
CCN1C(=O)[C@H]2[C@@H](c3ccc(C(F)(F)F)cc3)N[C@]3(CCCN(Cc4ccccc4)C3=O)[C@H]2C1=O	7.6	5.4	3.2	.	.	.	.	78.3*
Cc1ccc(N2CN(Cc3cccnc3)CNC2=S)c(C)c1	.	5.0	6.8	i	1.1	3.5	-17.7	20.5
O=C(COC(=O)CC1CC2CCC1C2)Nc1ccc(Cl)c(S(=O)(=O)N2CCOCC2)c1 (stereo not given)	-9.4	0.8	2.6	.	.	.	15.3	.
CN1CCN(CCCNC(=O)CN2C(=O)COc3ccccc32)CC1	.	4.0	2.3	i	-5.4	-6.6	.	1.3
COC(=O)Cc1csc(/N=C/c2c(O)n(-c3cccc(C(F)(F)F)c3)c(=O)c3ccccc23)n1	.	-9.3	-1.5	.	7.9	1.9	44.4	4.1
CC12CCC(C)(c3nc4ccccc4nc31)C2(C)C	-6.4	-2.1	-1.7	i	1.3	-3.1	66.2	4.2
Cc1ccccc1Nc1c([N+](=O)[O-])ccc2nonc12	13.8	3.3	-3.9	i	-14.4	-3.1	-6.3	-15.5
CC(=O)c1sc(NC(=O)c2ccccc2)nc1-c1ccccc1	.	-5.7	-3.1	i	1.3	7.4	21.8	-97.1
O=C(Cc1c(F)cccc1Cl)Nc1ccccc1C(=O)N1CCOCC1	-21.8	-4.4	1.1	i	4.9	6.4	-2.9	.
O=C(Nc1ccncc1)Nc1cccc(Cl)c1Cl	0.2	-6.4	-7.7	i	-13.5	-15.5	-1.6	2.5
CCN(CC)C(CNS(=O)(=O)c1ccc(Cl)cc1)c1ccccc1 (stereo not given)	8.4	-3.4	2.7	i	-8.6	4.6	-3.5	2.0
COc1ccc(-c2csc(Cc3nnc(N4CCOCC4)n3-c3ccccc3)n2)cc1OC	.	-15.0	-0.4	i	1.9	31.3	11.1	.
CN1C(=O)NC(c2ccc(Cl)cc2)C2=C1CC(C)(C)CC2=O (stereo not given)	-7.4	1.1	3.0	i	3.3	-6.4	-3.8	-4.6
Cc1nnsc1C(=O)N1CCCC(C)(C(=O)NS(=O)(=O)C2CC2)C1 (stereo not given)	2.8	-3.9	2.5	.	.	.	.	2.9
O=C(C[n+]1cc(-c2ccc(F)cc2)n2c1CCC2)N1c2ccccc2Sc2ccccc21	.	-3.6	-4.9	i	1.2	-0.8	-2.9	-11.0
Cc1occc1C(=O)NCc1ccco1	.	3.3	7.2	i	57.8*	3.9*	.	-0.7	eIF4H FP inh retest=88.7*;PABP FP inh retest=88.0*
COc1ccc(NC(=O)c2coc3ccccc23)cc1OC	-12.7	1.2	-3.1	i	5.2	-6.1	-8.3	.
CCn1c(C(=O)N2CCCC(C(=O)NCCCc3ccccc3)C2)cc2sccc21 (stereo not given)	.	-0.1	-13.5	i	-0.9	3.6	-13.4	65.6*

Part of the list above in order of heavy-atom count, high to low.
SMILES	UUG fidelity	MT1-MMP act inh	MT1-MMP act inh RFP	Rce1 inhib	eIF4H FP inh	PABP FP inh	CSC inhib	Env fusion inh	others
CCOc1ccccc1NC(=O)Cn1c(=O)n(-c2ccc(OC)cc2OC)c(=O)c2c(C)c(C(=O)N(CC)CC)sc21	.	5.3	0.3	i	-8.8	-2.3	7.7	0.2
CN[C@H]1C[C@H]2c3[nH]c4ccccc4c3CCN2C(=O)[C@H]1[C@H](C)O	-21.3	3.5	3.2	.	.	.	.	-74.0
O=C(Nc1ccncc1)Nc1cccc(Cl)c1Cl	0.2	-6.4	-7.7	i	-13.5	-15.5	-1.6	2.5

Other results follow.
SMILES	UUG fidelity	MT1-MMP act inh	MT1-MMP act inh RFP	Rce1 inhib	eIF4H FP inh	PABP FP inh	CSC inhib	Env fusion inh	others
Cc1ccc2nc(-c3ccc(NC(=O)COC(=O)c4ccc(=O)[nH]c4)cc3)sc2c1	.	0.3	-0.4	i	10.3	20.3	-4.4	-123.3
C=CC[C@@H](CC(=O)N[C@@H](CO)Cc1ccccc1)C(=O)N[C@@H](C)COC(=O)[C@@H](CC=C)Cc1ccc(F)cc1	-12.4	2.9	-2.3	.	.	.	-28.0	-14.0
CC(C)(C)OC(=O)[C@H](Cc1ccccc1)NC(=O)c1[nH]cnc1C(=O)Nc1cccc(Cl)c1	1.4	1.1	-5.2	i	6.2	-4.0	96.9*	10.4
CCOc1ccc(CN(C)CC(=O)Nc2ccc(N3CCOCC3)cc2)cc1OC	.	3.4	5.6	i	-7.2	-18.1	-3.4	22.4
O=C(NC(=S)Nc1cc(S(=O)(=O)N2CCOCC2)ccc1N1CCOCC1)c1ccco1	.	-1.4	-1.2	i	-3.6	21.4	2.1	11.4
Cc1cc(-c2ccccc2)nc(N(C)NC(=O)C2CC2)c1S(C)(=O)=O	-25.5	1.7	5.7	i	-4.1	2.7	2.1	22.5
CC1CN(C(=O)c2ccc(NS(=O)(=O)c3ccc(F)cc3)cc2)CC(C)O1 (stereo not given)	-3.3	-1.5	-2.4	i	-3.3	-2.2	-11.0	-0.5
COc1c(F)cc2[nH]c3c(c2c1F)CCNC3=O	-0.9	-4.8	-3.8	i	.	.	0.4	65.1*
O=C(CCc1ccc(Oc2cc([N+](=O)[O-])cc([N+](=O)[O-])c2)cc1)N1CCCCCC1	-11.7	-1.6	-7.5	i	3.4	4.4	95.8*	4.1
NC(=O)NCCc1ccccc1	7.1&-9.3	1.3	2.3	i	-10.3	0.4	-1.4	-1.6[16.7 µM]
CC(=O)Nc1ccc(S(=O)(=O)N(C)CC(=O)N/N=C/c2ccncc2)cc1	-13.4	-0.2	3.0	.	6.5	6.7	-0.7	-15.6
COC(=O)c1c(NC(=O)C2CC(=O)NN2Cc2ccccc2)sc(C)c1C (stereo not given)	3.3	-1.0	-6.7	i	-2.1	-2.6	.	.
CC(=O)Oc1c(C)c(OC(C)=O)c2c(c1C(C)=O)OC1CC(=O)C(C(C)=O)=C(O)C21C (stereo not given)	-6.6	-1.9	-0.5	i	-0.3	10.1	-1.4	-9.5
CC(C)(C)NC(=O)c1cccc(NC(=O)Cc2cccs2)c1	.	-3.2	-0.5	i	-0.4	-2.9	-4.5	-10.8
COc1ccc(N2CCN(C(=O)c3ccccc3NS(=O)(=O)c3ccc(C)cc3)CC2)cc1	37.6	2.0	-3.9	i	-6.9	-6.9	-0.2	2.6
COc1ccc(NS(=O)(=O)c2c(C)cc(C)cc2C)cn1	-3.1	-2.3	-1.9	i	22.0	10.2	-8.5	0.1
COc1cc(CN2CCNC(=O)C2CC(=O)NC2CCCCC2)cc(OC)c1 (stereo not given)	-7.9	0.8	3.4	i	14.6	20.3	-2.1	.
NS(=O)(=O)c1ccc(CCNC(=O)c2ccncc2)cc1	-8.5	-2.7	-1.4	i	0.0	8.6	22.7	-4.0
COC(=O)C1=C(N)Oc2cc(C)[nH]c(=O)c2C1c1ccc(Cl)cc1 (stereo not given)	.	0.3	-2.0	i	39.6	-2.8	-0.6	11.7
CCN(CC)C(=O)C(=O)N/N=C/c1ccc(F)cc1	7.0	-0.8	4.5	i	1.7	0.1	6.0	4.1
CC(C)CCN1CCN(Cc2coc3ccccc3c2=O)CC1CCO (stereo not given)	-32.4	-2.6	-0.1	i	-2.0	-5.9	-4.2	4.3
O=P(O)(CN1CCCCCC1)C1Cc2ccccc2C1	.	.	.	i	8.1	14.6	-14.6	.
COc1ccccc1-n1c(C)nc2cc(C(=O)NCCN3CCOCC3)ccc21	.	4.5	5.5	i	9.9	-12.9	-1.4	-2.5
Cc1ccc(NC(=S)NC(=O)c2ccc(Br)o2)c(C)c1	.	0.2	1.1	i	0.6	-7.2	-7.9	-52.6
CCOc1ccccc1CN1CCN(Cc2ccc(C)o2)C(CCO)C1 (stereo not given)	.	-9.0	-3.9	i	7.8	2.7	12.7	-41.3

(list continues)
SMILES	UUG fidelity	MT1-MMP act inh	MT1-MMP act inh RFP	Rce1 inhib	eIF4H FP inh	PABP FP inh	CSC inhib	Env fusion inh	others
CCN(CC)C(=O)CN(C#N)c1nc(Cl)nc(N(C)C)n1	.	-0.6	3.2	i	-2.1	-3.8	3.0	16.5
COc1ccc(C(C)=O)cc1Cn1c(C)c(C(=O)NC2CC2)sc1=O	-19.2	4.6	3.2	.	.	.	.	-122.0
Cc1cc(C)cc(NC(=O)C2CCCN(c3nc(C)cc(C)n3)C2)c1 (stereo not given)	-19.9	-3.6	0.4	i	-1.2	3.9	5.8	.
CC1(C)CC(=O)c2sc(NC(=O)C3COc4ccccc4O3)nc2C1 (stereo not given)	-10.5	0.6	0.6	i	-8.2	-0.8	11.7	.
Cc1oc2c(CN3CCOCC3)c(O)ccc2c(=O)c1-c1ccccc1	-9.7	-1.4	8.3	+	0.7	-3.8	3.4	.
C=CCC1NS(=O)(=O)OC2CCCCC12 (stereo not given)	-12.4	1.7	1.9	i	-14.3	-3.4	-22.4	-48.9
O=C(Cn1cc(C(F)(F)F)ccc1=O)Nc1ccc2c(c1)OCCO2	-5.9	1.2	2.0	.	.	.	-1.2	-22.1
Cc1noc2ncnc(Sc3ccccc3Cl)c12	-15.6	-5.4	-1.0	i	-1.8	3.9	-8.8	.
CCOC(=O)C1=NNC(C(=O)OCC)C1C(=O)OCC (stereo not given)	7.5	4.1	4.9	.	.	.	.	28.1
COc1ccccc1NC(=O)c1ccc(NS(=O)(=O)c2ccc(F)c(F)c2F)cc1	-11.5	-5.1	-4.5	i	9.4	10.6	13.5	6.1
Cc1cc(C(=O)NC2CCC(O)CC2)c(C)o1 (stereo not given)	-7.9	3.0	1.3	.	.	.	-15.5	-6.0

Compounds from the list above that contain a nitro group on carbon:
SMILES	UUG fidelity	MT1-MMP act inh	MT1-MMP act inh RFP	Rce1 inhib	eIF4H FP inh	PABP FP inh	CSC inhib	Env fusion inh	others
O=C(CN(c1cccc(C(F)(F)F)c1)S(=O)(=O)c1ccc(Cl)c([N+](=O)[O-])c1)NCc1ccccc1	-19.6	2.7	4.5	i	-8.5	-8.1	85.3*	-27.6
Cc1ccccc1Nc1c([N+](=O)[O-])ccc2nonc12	13.8	3.3	-3.9	i	-14.4	-3.1	-6.3	-15.5
O=C(CCc1ccc(Oc2cc([N+](=O)[O-])cc([N+](=O)[O-])c2)cc1)N1CCCCCC1	-11.7	-1.6	-7.5	i	3.4	4.4	95.8*	4.1
